Screens from PubChem BioAssay.
Rce1 inhib: yeast Ras-converting enzyme inhibition. yeast membranes, quenched prenylated peptide cleavage fluorescence. calls only. actives 0.27% (n = 290,000). AID 2563;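 active means fall in fluorescence gain of 50% or more versus controls, with final raw signal at or below 3038400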;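 further: plate controls were neutral control wells for no effect and wells lacking membranes for full effect; tested at 10 µM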
Target sequence (Q03530 whole entry, looked up): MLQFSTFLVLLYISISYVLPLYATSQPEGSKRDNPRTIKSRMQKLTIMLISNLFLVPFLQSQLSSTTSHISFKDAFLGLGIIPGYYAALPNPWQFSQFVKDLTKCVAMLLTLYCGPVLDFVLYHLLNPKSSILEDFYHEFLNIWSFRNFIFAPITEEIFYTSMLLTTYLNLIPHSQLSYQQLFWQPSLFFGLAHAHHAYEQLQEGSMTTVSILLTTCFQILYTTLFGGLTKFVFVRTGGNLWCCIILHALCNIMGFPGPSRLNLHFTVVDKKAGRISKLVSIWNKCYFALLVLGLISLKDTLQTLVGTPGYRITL
MT1-MMP act inh: inhibitors of human MT1-MMP activation; actives 0.061% (n = 360,000); AID 651647; GFP/RFP ratio change, % at 20 µM; P50281; HT1080 RFP-PRO-GFP cells, GFP/RFP ratio fluorescence, overnight; percent of plate control window, DMSO zero;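 active means GFP/RFP ratio change of at least 30% with cell ATP level not reduced by more than half and red fluorescence within 50% of control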; further: strong numbers were not always called active
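Compound: 20 µM single dose, 1% DMSO / System: HT1080 RFP-PRO-GFP cells / Controls: DMSO and RFP-L50D-GFP cell wells / Read-out basis: GFP/RFP fluorescence ratio / Schedule: overnight compound exposure at 37 °C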
HIV Env fusion: blocks HIV Env-driven cell-cell fusion; actives 1.1% (n = 360,000); inhibition, % at 12.3 µM; AID 651610; HeLa-JRFL Env/CEM21 cell fusion, luciferase;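 active means mean replicate inhibition score of at least 50 and every replicate individually at or above 50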;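 further: 0% = plate neutral controls and 100% = maraviroc near 300 nM; one replicate is shown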
UUG fidelity: yeast start codon fidelity modulation | S. cerevisiae UUG-firefly luciferase reporter, luminescence/redox ratio | AID 602363 | activity score, % at 18.7 µM | actives 0.13% (n = 350,000);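 active means replicate mean at a twofold rise or more, about +100% in these data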;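 further: firefly luciferase made from a UUG start codon reports start codon fidelity; reporter light over untreated wells divided by growth signal over untreated wells; some hits fall short of that in this replicate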
CSC inhib: blocks cancer stem cells; cancer stem cell-like cells viability, luminescence; actives 1.1% (n = 300,000); inhibition, % at 7.5 µM; AID 2717;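 active means mean at 75% or more and at least half the replicates too; tested in HMLE shEcad cells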;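 further: 0% = median of negative and 100% = median of positive control wells; the first replicate is given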
eIF4H inh: inhibitors of RNA binding by human eIF4H | eIF4H fluorescence polarization binding assay | inhibition, % at 35 µM | actives 0.94% (n = 290,000) | AID 2012;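 active means 50% or more with normal probe brightness, or confirmed in later tests; about a fifth of its hits are not listed in these tables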;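 further: calls also rest on retests at 20 µM and on dose response follow-up; 0% = protein and probe with vehicle and 100% = probe without protein; strong numbers were not always called active; many hits fall short of the cut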
PABP polyA inh: PABP-poly(A) binding inhibition. P11940. PABP-poly(A) RNA binding, fluorescence polarization. inhibition, % at 35 µM. actives 1% (n = 290,000). AID 2014;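 active means 50% or more with normal probe brightness, or confirmed in later tests; about a fifth of its hits are not listed in these tables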;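 further: calls also rest on retests at 20 µM and on dose response follow-up; controls were probe without protein and protein plus probe with vehicle; some compounds called inactive have numbers as strong as hits; many hits fall short of the cut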
Target sequence (P11940 whole entry, looked up): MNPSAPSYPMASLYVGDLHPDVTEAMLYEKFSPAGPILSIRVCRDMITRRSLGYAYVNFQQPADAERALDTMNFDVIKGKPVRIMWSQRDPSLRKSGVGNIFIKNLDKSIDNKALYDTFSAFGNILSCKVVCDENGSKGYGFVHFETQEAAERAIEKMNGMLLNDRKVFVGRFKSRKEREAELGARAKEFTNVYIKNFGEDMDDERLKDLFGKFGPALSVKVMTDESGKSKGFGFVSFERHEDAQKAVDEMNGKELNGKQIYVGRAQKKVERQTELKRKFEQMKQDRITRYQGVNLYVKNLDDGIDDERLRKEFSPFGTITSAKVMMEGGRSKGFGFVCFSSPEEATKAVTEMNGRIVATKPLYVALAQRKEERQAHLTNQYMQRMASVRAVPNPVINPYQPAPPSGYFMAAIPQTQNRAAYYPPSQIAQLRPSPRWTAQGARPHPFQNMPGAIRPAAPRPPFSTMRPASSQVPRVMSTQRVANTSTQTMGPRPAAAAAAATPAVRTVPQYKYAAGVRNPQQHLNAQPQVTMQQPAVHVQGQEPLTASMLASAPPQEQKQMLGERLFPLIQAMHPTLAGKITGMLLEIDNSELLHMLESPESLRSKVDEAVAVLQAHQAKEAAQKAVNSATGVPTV
MT1-MMP act inh RFP: also measured in MT1-MMP act inh; calls as there; RFP signal change, %; measured here: RFP expression control read;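 0 = vehicle wells; hits needed this value within 50% of zero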
* hit, by the source's call; i = inactive; nt = no result given; & = joins results of further samples. Only part of the results is shown. The share of hits here may be higher or lower than overall.

SMILES	Rce1 inhib	MT1-MMP act inh	MT1-MMP act inh RFP	HIV Env fusion	UUG fidelity	CSC inhib	eIF4H inh	PABP polyA inh
Cc1[nH]nc2c1C1(CCC(c3ccccc3)CC1)C(C#N)=C(N)O2 (stereo unspecified)	i	6	-2	15	-9	-10	-7	-4
Cc1ccc(S(=O)(=O)c2n[nH]n3c2nc(=O)c2ccccc23)cc1	i	4	3	-47	-12	-8	0	0
O=[N+]([O-])c1cc(S(=O)(=O)NCCN2CCOCC2)ccc1Sc1nnnn1-c1ccccc1	i	-12	-18	35	nt	55	12	-9
COc1cccc(OCC(=O)N(C)Cc2nc(-c3ccccc3)no2)c1	i	0	0	4	-4	-8	-2	8
O=C(C1=C(O)C(=O)N(c2ccccc2)C1c1ccc([N+](=O)[O-])cc1)c1cccs1 (stereo unspecified)	i	4	0	0	-12	18	44	27
CCOc1ccc(CCNC(=O)COC(=O)/C=C/c2ccc(OC(F)F)c(OC)c2)cc1OCC	i	5	2	-4	-13	-8	nt	nt
COCCn1c(SCC(=O)NCc2ccccc2)nc2ccccc21	i	-2	4	0	-14	0	-5	4
COn1c(SC2CCCCC2)nc2ccccc2c1=O	i	1	-4	17	-3	nt	-12	-10
CC1=NOC(=O)/C1=C\c1ccc(-c2ccc(Cl)c(C(=O)O)c2)o1	i	-5	11	-1	nt	nt	42	-6
CCOC(=O)C1CCCN(C(=O)c2cc(S(=O)(=O)N3CCCCCC3)ccc2OC)C1 (stereo unspecified)	nt	-1	-6	nt	-2	-9	nt	nt
COC(=O)N[C@H](CC(C)=O)c1ccccc1	i	nt	nt	nt	nt	-11	-1	6
COc1cccc(NC(=O)COC(=O)c2cccnc2)c1	i	-2	1	16	-10	-14	9	16
Cc1ccc(OCc2cc(C(=O)NCC3COCCO3)no2)cc1C (stereo unspecified)	i	1	4	21	6	3	-6	7
Cc1nc2cc(NC(=O)N3c4ccccc4CC3C)ccc2o1 (stereo unspecified)	i	0	1	nt	-11	12	0	5
Cc1cc(=O)[nH]c(SCC(=O)NCC2CCCCC2)c1C#N	i	-2	-1	12	-3	-12	3	2
CCn1cc(S(=O)(=O)N2CCN(c3ccc(Cl)cc3)CC2)cn1	i	1	-3	7	13	6	1	-2
Cc1ccc(S(=O)(=O)N2CCN(C(=O)C3=COCCO3)CC2)cc1C	i	4	5	nt	-17	-6	-5	-1
Cn1c(Cc2ccccc2)nnc1SCc1cc(=O)n2ccsc2n1	i	1	5	14	nt	-8	7	-2
O=C(CSc1ccccc1)N1CCN(S(=O)(=O)c2cccs2)CC1	i	-4	2	-6	5	-10	-4	-7
CC(C)(CO)CNC(=O)CCc1nnc(C2(c3ccc(Cl)cc3)CCC2)o1	i	-1	3	-14	nt	-3	7	-6
COc1cc2c(cc1NC(=O)C(C)NCc1ccccc1)oc1ccccc12 (stereo unspecified)	i	4	-1	-7	nt	36	-5	-9
CC(C)Cn1cnc2c(=O)oc3ccccc3c21	i	-2	1	nt	-7	-7	0	-12
CC(C)N=C1SCC(C)(/C=N/O)S1 (stereo unspecified)	i	1	2	-7	-9	-13	-6	2
CCOCCC(=O)Nc1ccc2c(c1)c(=O)n(C)n2Cc1cccc(C(F)(F)F)c1	nt	4	-1	23	1	nt	nt	nt
Cc1sc2nc(CN3CCOCC3)nc(N3CCOCC3)c2c1C	i	-1	3	nt	-18	-5	0	11
O=C(CSc1nnc(-c2ccc(S(=O)(=O)N3CCCC3)cc2)o1)NCc1ccccc1	i	-1	0	-335	-16	3	-7	12
Cc1ccc(OCCSc2ncccn2)c(C)c1	i	-1	-5	-63	-18	nt	8	-11
CCCc1nnc(SCC(=O)Nc2ccc(Cl)cc2Cl)o1	i	4	5	-6	-4	11	-9	5
CCN(CC)CCNC(=O)c1ccc(NC(=O)c2cccc(S(=O)(=O)Nc3ccc(C)cc3)c2)cc1	i	-5	-2	15	nt	-13	17	9
Cc1nc(Nc2c(Cl)cccc2Cl)sc1C(=O)Nc1ccccc1	i	0	-1	17	nt	nt	-15	-22
CC(NC(=O)Cn1nc(C(=O)O)c2ccccc2c1=O)C12CC3CC(CC(C3)C1)C2 (stereo unspecified)	i	0	5	23	-14	-13	-4	-7
CC(Cc1ccccc1)N1C(=O)c2cccc([N+](=O)[O-])c2C1=O (stereo unspecified)	i	1	-4	-5	-14	8	-9	6
COc1cc(-n2nnnc2SC)c(OC)cc1Cl	i	0	5	2	nt	8	-7	-4
O=C(CNC(=O)c1ccc(-c2ccccc2)cc1)OCc1ccc(Br)cc1	i	-2	-3	-12	nt	nt	-9	10
CCOC(=O)CSc1nc2cc(OCC)ccc2cc1C#N	i	-10	0	-101	-6	11	33	28
CN1CCN(C(=O)Nc2cccc(-c3ccccc3)c2)CC1	i	4	8	1	-16	2	2	-5
Cc1ccc(NC(=O)C2CC(O)CN2C(=O)Oc2ccccc2)c(C)c1 (stereo unspecified)	i	-1	2	5	-10	nt	6	5
Cc1occc1C(=O)N1CCCC(N2CCN(c3ccccc3F)CC2)C1 (stereo unspecified)	i	4	10	-4	-13	-2	0	17
C=CCCC(=O)Nc1ccc(Br)cn1	i	-2	0	-182	nt	-1	-2	-4
CC/C(=N\NC(=O)c1c(C)nc2ccccn12)c1ccc(Cl)cc1	i	3	-1	-9	-28	6	1	-1
CCc1ccc(-c2nc(SCC(=O)N3CCOCC3)n[nH]2)cc1	i	-1	-1	4	nt	-2	5	10
CCN(CC)c1ccc(NC(=O)c2cc3ccccc3o2)c(C)c1	i	2	-8	nt	3	-1	5	2
Cc1ccc(S(=O)(=O)N2CCOCC2)cc1C(=O)OCC(=O)c1c(N)n(C)c(=O)n(C)c1=O	nt	1	0	-6	4	6	nt	nt
O=C(NC1CCN(Cc2ccc(Cl)c(Cl)c2)CC1)c1ccccc1	i	2	-4	21	-5	nt	0	6
COc1ccc(NC(=O)N(C)C[C@H]2Oc3ccc(NC(=O)CCC(F)(F)F)cc3C(=O)N([C@H](C)CO)C[C@@H]2C)cc1	nt	4	6	7	-5&3	-11	nt	nt
CCn1c(=S)[nH]c2sc3c(c2c1=O)CCCC3	i	2	5	50	4	4	5	19
COc1ccc(C2=NO[C@@H]3C(=O)N(c4ccc5c(c4)OCCO5)C(=O)[C@H]23)cc1OC	i	-3	0	-16	-22	-5	-4	9
O=C(COc1ncnc2ccccc12)NCCC1=CCCCC1	i	1	4	nt	-17	nt	-2	-4
CCOC(=O)c1ccc(NC(=O)c2cc(C)nn2-c2ccccc2)cc1	i	-2	-1	7	-12	-13	-8	-2
Cn1c(SCCCC(=O)c2ccc(Br)cc2)nnc1-c1ccncc1	i	12	-9	16	-20	55	-1	2

Next section.
SMILES	Rce1 inhib	MT1-MMP act inh	MT1-MMP act inh RFP	HIV Env fusion	UUG fidelity	CSC inhib	eIF4H inh	PABP polyA inh
Cc1cccc(N2CCN(C(=O)COCc3cc(-c4ccc5c(c4)OCO5)on3)CC2)c1C	i	0	8	5	-13	121*	-1	1
CN(C)C(CNC(=O)c1ccc(S(=O)(=O)NCc2ccco2)cc1)c1ccccc1 (stereo unspecified)	i	-2	1	-9	-7	4	0	23
O=[N+]([O-])c1cc(C(F)(F)F)ccc1NCCc1ccccn1	i	2	-4	4	nt	-2	nt	nt
Cc1ccc(-c2nc3ncccn3c2Nc2ccc3c(c2)OCCO3)cc1	i	-1	1	4	-34	3	-1	-7
COc1ccc(CCN(C)C(=O)c2cncc(Br)c2)cc1OC	i	-2	-3	19	0	14	11	-11
COc1ccc(C(O)c2ncc(-c3ccccc3C)[nH]2)cc1F (stereo unspecified)	nt	-3	4	-9	-12	nt	nt	nt
COc1cccc(-n2c(SC)nnc2-c2c[nH]c3ccccc23)c1	i	-1	-6	17	-13	0	-4	4
Cc1occc1C(=O)NNC(=O)Nc1ccc(Cl)c(Cl)c1	i	-5	-1	-5	-18	-8	-3	20
CCNC(=S)N1CCNC(=O)C1CC(=O)OC (stereo unspecified)	i	1	0	-8	-15	-10	6	7
CCOCCCNC(=O)C(c1ccc(OC)cc1)N(Cc1ccc2c(c1)OCO2)C(=O)c1ccccc1O (stereo unspecified)	i	-3	-1	2	16	3	-11	5
Cc1cccc(NC(=O)c2nc[nH]c2C(=O)N[C@@H](Cc2ccccc2)C(=O)OC(C)(C)C)c1	i	1	0	-1	-17	-19	16	0
COc1ccc(-c2nc(CSCC(=O)NCc3ccco3)c(C)o2)cc1	i	-1	0	nt	-10	-15	-2	-38
Nc1nonc1-n1nnc(C(=O)N/N=C\c2cccc(Cl)c2)c1CN1CCOCC1	nt	3	0	0	-7	-2	8	7
CC1(C(=O)N/N=C/c2c(F)c(F)c(F)c(F)c2F)CC1(Cl)Cl (stereo unspecified)	i	1	0	20	-14	37	nt	nt
COc1cc2c(cc1OC)CN(CC(=O)Nc1cccc([N+](=O)[O-])c1)CC2	i	0	-3	9	-3	-7	-13	14
Cc1ccc(NC(=O)COC(=O)c2cc(C)nc3ccccc23)c([N+](=O)[O-])c1	i	7	4	-6	nt	-8	3	-4
CN1C(=O)CC(N2CCN(C(=O)CN3CCCC3)CC2)C1=O (stereo unspecified)	i	0	7	-45	2	-3	0	13
O=C(Cc1ccc(NC2=NC3CS(=O)(=O)CC3S2)cc1)Nc1ccc(F)cc1 (stereo unspecified)	i	-1	2	18	-18	nt	-5	4
CN(C)/C=C1\C(=O)Oc2ccccc2C1=O	i	nt	nt	7	1	-3	nt	nt
CC(=O)c1ccc(S(=O)(=O)Nc2ccc(Cl)c(S(=O)(=O)N3CCCC3)c2)cc1	nt	-2	-7	nt	4	-9	nt	nt

Entries listed so far that have two or more sulfur atoms, in the order listed:
SMILES	Rce1 inhib	MT1-MMP act inh	MT1-MMP act inh RFP	HIV Env fusion	UUG fidelity	CSC inhib	eIF4H inh	PABP polyA inh
O=[N+]([O-])c1cc(S(=O)(=O)NCCN2CCOCC2)ccc1Sc1nnnn1-c1ccccc1	i	-12	-18	35	nt	55	12	-9
Cn1c(Cc2ccccc2)nnc1SCc1cc(=O)n2ccsc2n1	i	1	5	14	nt	-8	7	-2
O=C(CSc1ccccc1)N1CCN(S(=O)(=O)c2cccs2)CC1	i	-4	2	-6	5	-10	-4	-7
CC(C)N=C1SCC(C)(/C=N/O)S1 (stereo unspecified)	i	1	2	-7	-9	-13	-6	2
O=C(CSc1nnc(-c2ccc(S(=O)(=O)N3CCCC3)cc2)o1)NCc1ccccc1	i	-1	0	-335	-16	3	-7	12
CCn1c(=S)[nH]c2sc3c(c2c1=O)CCCC3	i	2	5	50	4	4	5	19
O=C(Cc1ccc(NC2=NC3CS(=O)(=O)CC3S2)cc1)Nc1ccc(F)cc1 (stereo unspecified)	i	-1	2	18	-18	nt	-5	4
CC(=O)c1ccc(S(=O)(=O)Nc2ccc(Cl)c(S(=O)(=O)N3CCCC3)c2)cc1	nt	-2	-7	nt	4	-9	nt	nt

(next part)
SMILES	Rce1 inhib	MT1-MMP act inh	MT1-MMP act inh RFP	HIV Env fusion	UUG fidelity	CSC inhib	eIF4H inh	PABP polyA inh
Cc1nc(P(=O)(c2ccccc2)c2ccccc2)c(N2CCOCC2)o1	i	-2	3	-31	-1	2	8	-8
C=CCn1c(CCn2c3ccccc3c3ccccc32)n[nH]c1=S	i	1	4	-5	-21	8	-3	-6
CCCOc1ccc(N2CC(C(=O)Nc3ccc4c(c3)OCO4)CC2=O)cc1 (stereo unspecified)	i	1	1	16	0	-10	8	0
CC(NC(=O)/C(C#N)=C1\N=C(NC(=O)c2ccco2)c2ccccc21)c1ccccc1 (stereo unspecified)	i	-34	0	-7	-5	19	16	-17
O=S(=O)(Nc1nc2ccccc2[nH]1)c1ccc(Cl)cc1	i	2	1	-49	-18	-2	-5	44
O=C(O)c1cc2c(cc1NC(=O)c1c(F)cccc1Cl)OCCCO2	i	1	1	-2	-15	0	-19	4
COc1ccc(OC)c(S(=O)(=O)N2CCC(C(=O)NC(C)c3ccccc3)CC2)c1 (stereo unspecified)	nt	1	-1	-40	-2	-3	2	0
NC1=NC[C@H](Cc2ccc(O)cc2)N1CCCCC1CCCCC1	i	6	-31	37	1	-26	5	-1
CCn1c(SCC(=O)Nc2nccs2)nnc1-c1ccccn1	i	-2	0	-14	-12	-6	-5	1
